# Tgondii IFNg = inhibitors of Toxoplasma gondii growth with IFN-gamma; Toxoplasma gondii growth in IFN-gamma-treated host cells; stronger effect = lower value; reference of the scale not given here; activity change, negative = inhibition, %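 (about 20 µM by stock and volumes)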; AID 1259416; actives 3.8% (n = 69,000);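 active = below -70%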;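 also: host cells are HeLa cells infected with Toxoplasma gondii; parasite growth read as luciferase light; one replicate is shown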
# Active calls of the source: *; i = inactive. A portion of the library (hit frequency here may not be typical).
# Sample of the layout (2 entries):
SMILES	Tgondii IFNg
COc1cccc(CN2[C@@H]3CNC[C@H]2C3c2ccc(/C=C/c3ccccc3)cc2)c1 (stereo not given in full)	-5.3
CN(C)c1nc(-c2cnn(C)c2)nc2c1CN(Cc1ccc(F)cc1)CC2	-11.9

# The listing (from the top)
SMILES	Tgondii IFNg
COc1cccc(CN2[C@@H]3CNC[C@H]2C3c2ccc(/C=C/c3ccccc3)cc2)c1 (stereo not given in full)	-5.3
CN(C)c1nc(-c2cnn(C)c2)nc2c1CN(Cc1ccc(F)cc1)CC2	-11.9
C[C@@H]1CN([C@H](C)CO)C(=O)c2ccccc2-c2ccccc2CO[C@H]1CN(C)C(=O)[C@@H](Cc1ccccc1)N(C)C	12.0
CCc1cc(CN(C)C(=O)c2cnc(-c3cccnc3)nc2)on1	-1.3
CCS(=O)(=O)N1C[C@H]2COC[C@@H](Cc3nc(C)no3)[C@H]2C1	-8.3
Cc1ccc(C2(O)CCN(C(=O)CCn3nnc4ccccc43)CC2)nc1	-5.7
CCCCOc1ccc(-c2cc3c(=O)n(Cc4nc(-c5ccc(Cl)cc5)oc4C)ccn3n2)cc1	-3.5
CN(C)CC(=O)N1[C@H](C#N)[C@@H](c2ccc(-c3cccc(C(=O)N(C)C)c3)cc2)[C@H]1CO	-34.4
CN(C)CCOCC1CN(Cc2ccccn2)Cc2ccnn2C1 (stereo not given)	5.3
CCn1c(=O)c(C(=O)Nc2cccc(Cl)c2)c(O)c2ccccc21	21.0
CC(=O)c1ccc(NS(C)(=O)=O)c(Oc2ccc(F)cc2F)c1	3.3
Cc1[nH]nc(-c2ccc(O)cc2O)c1Oc1ccc(F)cc1	-15.0
Cn1cnc2cc(C(=O)N3CCN(S(=O)(=O)N4CCCC4)CC3)ccc21	13.8
CCCc1cnc(N2CCN(C(=O)NS(=O)(=O)c3ccc(C)cc3)CC2)nc1	-23.2
COc1ccc2c(c1)NC1(CCN(S(=O)(=O)c3ccc(Cl)c(Cl)c3)CC1)c1cccn1-2	32.2
CCC(CN1CCOCC1)Nc1nc(-c2ccc(OC)cc2)nc2ccccc12 (stereo not given)	-48.5
CCc1ccc(CNC2CCc3c(ccc(=O)n3CCOC)C2)o1 (stereo not given)	0.3
CO[C@@H]1CN(C)C(=O)c2ccc(NC(=O)c3cccc(F)c3)cc2OC[C@@H](C)NC[C@@H]1C	5.9
Cc1ccc(S(=O)(=O)N(C)c2cncc(C(=O)N3CCN(c4ccccc4)CC3)c2)cc1	-26.1
CCCN1CCN(c2ncnc3sc(C(=O)NCCc4c[nH]c5ccc(Cl)cc45)c(C)c23)CC1	-84.5*
CCN(CC)S(=O)(=O)c1cccc2nsnc12	20.3
O=S(=O)(NCc1ccc(N2CCOCC2)cc1)c1cccs1	13.4
N#C[C@H]1[C@H](c2ccccc2)[C@H](CO)N1C(=O)c1cc(Cl)cc(Cl)c1	5.8
COCCN1CCn2c(CNC(=O)c3cccn3C)cnc2C1	0.7
Clc1ccc(-c2nc(NC3CCCCC3)c3ccccc3n2)cc1	-17.6
Cc1ccc(N2CC3(CCN(C(=O)c4cccc5cccnc45)C3)CC2=O)cc1 (stereo not given)	1.8
COc1ccc(CN2CCn3c(CNC(=O)c4cccn4C)cnc3C2)cc1	-40.2
CC(C)CCNc1ncccc1C(=O)N1CCN(Cc2ccccc2)CC1	6.6
Cc1ccc(C)n1-c1nn(S(=O)(=O)c2ccccc2)c2cccc(F)c12	101.5
CC1=C2C(O)C(=O)OC3CC4C(C)(C)C(=O)C=C[C@]4(C)C(CC1)[C@]23C (stereo not given in full)	6.9
COc1ccc(C(=O)NCc2cccnc2)cc1C(=O)NCc1cccnc1	-1.0
COCC(=O)N1CCC2(CC1)CN(C(=O)c1ccccn1)[C@@H](CO)c1c2c2ccc(OC)cc2n1C	24.8
Cc1ccc2c(c1)NC1(CCN(C(=O)CCc3ccccc3)CC1)c1cccn1-2	5.1
COCCN1C(=O)N(Cc2ccccc2)C2(CCN(Cc3ccc(OC)c(OC)c3OC)CC2)C1=O	-31.1
CC(C)(C)c1oc(C(=O)N2CCC(Oc3cccnc3)CC2)cc1CN1CCCC1	-4.5
COc1ccc(NC(=O)N(C)C[C@H]2OCc3ccccc3-c3ccccc3C(=O)N([C@H](C)CO)C[C@@H]2C)c(OC)c1	0.8
COc1ccc(OC)c(C2CCN(C(=O)CCNC(=O)c3ccc(F)cc3)C2)c1 (stereo not given)	-19.3
CN1CCN(CC#N)C(=O)C12CCN(Cc1cnn(C)c1)CC2	-8.4
C=CCN(Cc1ccccc1Cl)C(=O)CC1C(=O)N(C)C(=O)N1C (stereo not given)	-3.7
O=C(c1cnccn1)N1CC(=O)N2[C@@H](CO)[C@H](c3ccc(-c4cccc(F)c4)cc3)[C@@H]2C1	-20.4
CN1C[C@@H](C(=O)NCCc2cccs2)C[C@@H]2OCC[C@@H]21	-2.5
COCC(=O)Nc1ccc2c(c1)C(=O)N(C)C[C@H](OC)[C@@H](C)CN(C(=O)c1ccncc1)[C@H](C)CO2	4.6
CCN1CCC(CN(CC)c2nc(CCN)nc3ccccc23)C1 (stereo not given)	1.0
COCC1CN(C(=O)Cc2cccc(F)c2)Cc2ccnn2C1 (stereo not given)	51.2
c1cc(-c2nnc3sc(C45CC6CC(CC(C6)C4)C5)nn23)ccn1	-53.3
Cc1ccc(CN(C(=O)c2ccc(-n3cnnc3)cc2)C2CC2)s1	5.7
CNC(=O)c1ccc(-c2nc(CN3CCN(S(=O)(=O)N(C)C)CC3)c(C)o2)cc1	35.8
CS(=O)(=O)NCC(=O)N1CCOC(CCCc2ccccc2)C1 (stereo not given)	-3.9
C=CCn1c(=O)c(-c2nc(-c3cccc(Br)c3)no2)c(O)c2ccccc21	111.4
O=C(C1CCOCC1)N1CC(=O)N2[C@H](CO)[C@@H](c3ccc(C#CC4CCCCC4)cc3)[C@@H]2C1	-10.1

# Further entries
SMILES	Tgondii IFNg
CC(C)c1ccc(NC(=O)C2=NNC(=O)CC2)cc1	292.1
CCn1c(C2CCCNC2)nn(CCN2CCN(c3ccccc3)CC2)c1=O (stereo not given)	-22.1
CCN(CC)C(=O)C1Cn2ccnc2C2(CCN(C(=O)Nc3ccccc3Cl)CC2)O1 (stereo not given)	-60.4
CC(C)N(C)Cc1ncn2c1CN(S(=O)(=O)C1CC1)CCC2	-1.8
COc1ccccc1CN(C(=O)c1ccc2nc(C)[nH]c2c1)C1CC1	-6.7
Cc1cc(C)n(Cc2nc(-c3ccc(NC(=O)Cc4ccccc4F)cc3)oc2C)n1	-7.9
C[C@]12C=CC(=O)N[C@@H]1CC[C@@H]1[C@@H]2CC[C@]2(C)[C@@H](C(=O)Nc3cc(C(F)(F)F)ccc3C(F)(F)F)CC[C@@H]12	-58.1
Brc1cccc(Nc2ncnc3cc4nc[nH]c4cc23)c1	-20.4
Cc1occc1C(=O)N1CCc2ccc(=O)n(CC3CC3)c2CC1	0.3
O=C1COC2(CCN(Cc3ccoc3)CC2)CN1c1cccnc1	-57.2
CCOC(=O)N1CCC2(CC1)OC(=O)C(C)=C2C(=O)NCc1ccccc1Cl	79.6
Cn1nc(-c2ccccc2)c2c1C[C@H]1CN(C(=O)C3(C)CC3)C[C@H]21	-28.8
CN(Cc1ccccc1C(F)(F)F)C(=O)c1ncc[nH]1	-8.1
N#CSc1cc(SC#N)c(N)nc1N	-52.4
CC(C)CCN1C[C@@H]2CCN(C(=O)NC3CCCC3)CC[C@H]2S1(=O)=O	3.6
COCCNC(=O)[C@H]1[C@H](CO)[C@H]2Cn3c(ccc(C4=CCCCC4)c3=O)[C@@H]1N2Cc1cocn1	1.6
CSc1ccc(C2c3[nH]c4ccccc4c3CCN2C(=O)c2ccco2)cc1 (stereo not given)	i
O=C1CC(Cn2cnc(-c3ccccc3)c2C2CC2)CN1C1CCCC1 (stereo not given)	-62.6
COCC(C)NC(=O)c1ccc(CN2CCc3ccccc3C2)cc1 (stereo not given)	-26.1
CCOC(=O)N1CCC2(CC1)OC(=O)C(C)=C2C(=O)NCCC1=CCCCC1	89.5
COc1ccc2cc(CN3CCCC(O)(CO)CC3)ccc2c1 (stereo not given)	4.9
CCN1CC2(CCN(S(=O)(=O)C3CC3)CC2)C2(CCNC2=O)C1 (stereo not given)	11.8
Cc1ccccc1-n1nc(C)c2c1CC(C)(C)CC2=O	-30.1
CCS(=O)(=O)N1CCc2c(nc(C)nc2N(C)C)C1	0.1
CCCCNC(=O)c1c(O)c2cccnc2n(-c2cccc(OC)c2)c1=O	138.3
O=C(O)c1cccc(CC2CCN(C(=O)c3cccc4nccnc34)CC2)c1	3.0
Cc1nc(NC(=O)NC2CCN(Cc3ccccc3)CC2)nn1C	2.3
c1coc(CN2CCCC3(CC(n4ccnc4)CO3)C2)c1 (stereo not given)	-12.4
O=C(Cn1ncc2c(N3CCOCC3)ncnc21)Nc1ccccc1Cl	15.0
COc1cccc(OCC(=O)NCCc2sc(-c3cccc(F)c3)nc2C)c1	11.4
OC1(CNc2ncc(F)cn2)CCCNCC1 (stereo not given)	2.2
COc1ccc(-c2cc3c(=O)n(Cc4nc(-c5ccc(C)cc5C)oc4C)ccn3n2)cc1	-61.7
COc1ccc(C(=O)N2CCOC(C(F)(F)F)C2)c(OC)c1OC (stereo not given)	-2.6
CO[C@@H]1CC[C@@H]2[C@H]1OCCN2C(=O)N(C)C	50.6
Cc1ccccc1N1CCCN(Cc2cc3n(n2)CCNC3)CC1	-46.6
CCN(C)c1cc(N2CCN(Cc3cc4ccccc4n3C)CC2)ncn1	-67.9
CCOC(=O)c1c[nH]c2ccc(OC)cc2c1=O	-87.8*
Cn1cnc(S(=O)(=O)N[C@H]2CC[C@@H](CC(=O)NCC3CCCCC3)O[C@H]2CO)c1	-22.4
CC(=O)Nc1cccc(C(=O)N(Cc2ccsc2)CC2CCCO2)c1 (stereo not given)	149.7
CCOC(=O)N1CCC(NCCCC2CCOC2)CC1 (stereo not given)	-2.8

# Three neighbouring entries out of the list so far, quoted:
SMILES	Tgondii IFNg
Cn1cnc(S(=O)(=O)N[C@H]2CC[C@@H](CC(=O)NCC3CCCCC3)O[C@H]2CO)c1	-22.4
CC(=O)Nc1cccc(C(=O)N(Cc2ccsc2)CC2CCCO2)c1 (stereo not given)	149.7
CCOC(=O)N1CCC(NCCCC2CCOC2)CC1 (stereo not given)	-2.8

# More entries
SMILES	Tgondii IFNg
CC(C)CN1C(=O)CO[C@H]2CN(C(=O)NCc3cccnc3)C[C@@H]21	7.3
Cc1cc(N(C)CC2CCCCO2)nc(N2CCOCC2)n1 (stereo not given)	-37.7
COc1nc(C)cc(C)c1CNC(=O)c1cc2n(n1)CCCN(C)C2	4.7
NCCNC(=O)CCc1n[nH]c(=O)c2ccccc12	6.8
CC(=O)Nc1ccc(C(=O)N(c2ccc(F)c(F)c2)C2(C(=O)NCc3ccccc3)CCN(C(C)=O)CC2)cc1	30.2
CCOc1ccc(-c2nc(Cn3nnc(C(=O)Nc4ccc(C)cc4Br)c3C)c(C)o2)cc1	107.1
C[C@H]1CN([C@@H](C)CO)S(=O)(=O)c2ccc(-c3ccc(F)cc3)cc2O[C@@H]1CN(C)Cc1ccccc1C(=O)O	-45.2
Cc1ccc(-c2nc(CNC(=O)c3c(-c4cccc(C)c4)noc3C)no2)cc1	-52.3
COCCN1CCOCC12CCN(Cc1cc(C)n(C)n1)CC2	3.6
O=C(C[C@H]1CC[C@H](NC(=O)C2CC2)[C@H](CO)O1)Nc1ccccc1	3.2
O=C(C[C@H]1CC[C@@H]2[C@H](COC[C@H](O)CN2Cc2ccc(F)cc2)O1)NCCc1ccccc1	-5.1
Cc1ccc(C2(O)CCN(C(=O)c3ccc(Cn4ccnc4)o3)CC2)nc1	-45.5
CCCc1nnsc1C(=O)N1CCC(Cc2cccc(C(N)=O)c2)C1 (stereo not given)	-7.4
Cc1ccc(-c2nnc(-c3nc(Nc4ccc(C)c(F)c4)c4ccccc4n3)o2)cc1	189.7
Cc1noc(C)c1CNC(=O)C(c1cccnc1)N1CCCC1 (stereo not given)	-0.6
OC1(c2cccc(C(F)(F)F)c2)CCN(Cc2ccncc2)CC1	-9.1
Cc1nc(C)n(CC2CN(C(=O)C3CCOC3)Cc3nccn3C2)n1 (stereo not given)	0.0
Cc1nc(NCCOc2c(C)cccc2Cl)c2cnn(C)c2n1	-32.7
Cn1nc(CNc2ncccn2)c2c1CN(C(=O)c1ccc(F)cc1)CC2	83.3
CCCCN(Cc1ccco1)S(=O)(=O)c1ccc2[nH]c(=O)ccc2c1	33.0
CCN(CCN(C)C)c1nc(-c2ccc(OC)cc2)nc2ccccc12	-69.9
CC(=O)NC[C@H]1[C@@H](c2ccc(C#CC(C)C)cc2)[C@@H](CO)N1Cc1ccccn1	-5.4
CCC(C)[C@H]1O[C@]2(C=C[C@@H]1C)C[C@@H]1C[C@@H](C/C=C(\C)[C@@H](OC3C[C@H](OC)C(O[C@H]4C[C@H](OC)[C@@H](NC(C)=O)[C@H](C)O4)[C@H](C)O3)[C@@H](C)/C=C/C=C3\CO[C@@H]4[C@H](O)C(C)=C[C@@H](C(=O)O1)[C@]34O)O2 (stereo not given in full)	13.3
O=C1N(c2ccccc2)CC12CCN(S(=O)(=O)c1ccc(F)cc1)CC2	6.2
CC(=O)Nn1c(-c2ccccc2)cn2c(cc3sccc32)c1=O	i
Cc1ccc(NC(=O)c2c(O)c3ccccc3n(-c3ccccc3)c2=O)cc1	36.9
CN(C)c1nc2c(c(=O)[nH]1)CCN(S(=O)(=O)N1CCCCCC1)C2	2.6
COCCn1c2c(ccc1=O)CC(NCc1cccc(C#N)c1)CC2 (stereo not given)	-1.1
CN(Cc1cc2n(n1)CCNC2)Cc1n[nH]c2c1CCCCC2	-1.3
Cc1nc(=O)[nH]c(C)c1CCC(=O)NC(C)C(=O)N(C)C (stereo not given)	4.8
NCC[C@H]1CC[C@H](NC(=O)NC2CCCCC2)[C@@H](CO)O1	38.2
